# Screens: PubChem, ICCB-Longwood Screening Facility, Harvard Medical School
# HCMV NEC inh: disrupts HCMV UL50-UL53 complex binding; HTRF UL50-UL53 interaction, normalized percent inhibition; inhibition, % (concentration not given with the values); 190,000 compounds, 0.15% hits; AID 1918969;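 active = both replicates at 50% or more, plus weaker picks with an unusually low signal ratio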;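 note: stock transfer was 100 nL into about 20 µL; 0% = negative control wells and 100% = wells with untagged competitor protein; inactives centre near -12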
# GIV-Gai inh: blocks GIV peptide binding to rat Galpha-i3. P08753. 210,000 compounds, 0.42% hits. Galpha-i3/FITC-GIV peptide fluorescence polarization, 90 min; hits give low values; scaled: aluminum fluoride 0%, vehicle 100%. percent of control (FP), % (test concentration not listed);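 active = replicate mean at 85% of control or lower, very high polarization wells dropped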;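 note: wells of about 15 µL received 100 nL stock; the first replicate is given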
# Target sequence (P08753 whole entry, looked up): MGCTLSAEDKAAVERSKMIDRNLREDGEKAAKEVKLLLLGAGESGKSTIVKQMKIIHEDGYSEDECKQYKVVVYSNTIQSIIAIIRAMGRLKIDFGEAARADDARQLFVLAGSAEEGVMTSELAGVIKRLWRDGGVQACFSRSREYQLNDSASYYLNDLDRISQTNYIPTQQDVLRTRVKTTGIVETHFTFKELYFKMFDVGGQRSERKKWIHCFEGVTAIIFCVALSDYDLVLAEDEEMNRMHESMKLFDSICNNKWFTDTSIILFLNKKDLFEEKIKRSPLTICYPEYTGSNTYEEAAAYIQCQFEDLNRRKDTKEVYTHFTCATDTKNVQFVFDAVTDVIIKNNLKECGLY
# Sa growth 42C: blocks Staphylococcus aureus growth. S. aureus RN4220 growth, OD600, 20 h, 42 °C; hits give low values. relative growth, % (no concentration beside the values). 170,000 compounds, 0.53% hits. AID 720641;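 active = growth at 42 °C up to 50% and 20 or more points under that at 30 °C, or under 10% at both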;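 note: 300 nL library stock went into each well; scaled to the means of positive and negative controls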
# Sa growth 42C second temp: also measured in Sa growth 42C; calls as there; relative growth, %; measured here: growth at 30 °C;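 optical density after 20 h as mean of two plates; 100% = untreated growth and lower means inhibition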
# * hit, by the source's call; nt = not tested or not shown; & = joins results of further samples.
nr	Compound	HCMV NEC inh	GIV-Gai inh	Sa growth 42C	Sa growth 42C second temp
1	O=S(=O)(c1ccccc1)c1nnn2c1nc(N1CCN(c3ccccc3)CC1)c1cc(Cl)ccc12	-22	100	90	87
2	CC(C)(C)P(=NC(=O)C(F)(F)F)(N1CCCCC1)N1CCCCC1	-22	nt	97	92
3	O=C(NC(=S)NC12CC3CC(CC(C3)C1)C2)c1ccco1	-13	106	101	95
4	Cc1nnc(COC(=O)c2cccc(S(=O)(=O)N3CCCCC3C)c2)o1 (configuration not stated)	2	nt	119	101
5	COc1ccc(Cl)cc1NC1=NC2CS(=O)(=O)CC2S1 (configuration not stated)	nt	113	76	87
6	CCc1ccc(NC(=O)c2cc(S(=O)(=O)N3CCCC3)c[nH]2)cc1	nt	100	100	86
7	CC(NS(=O)(=O)c1ccc(C(C)(C)C)cc1)c1ccccc1 (configuration not stated)	nt	105	88	88
8	CCN(CC)C(=O)Cn1c(=O)n(CCCCCC(=O)NCc2ccccc2Cl)c(=O)c2sccc21	5	109	86	95
9	CC(=O)NC(=O)CCSc1ccccc1C(=O)NC(C)=O	-33	102	73	76
10	O=C(CS(=O)(=O)Cc1ccccc1)Nc1ccc2c(c1)OCCO2	8	nt	110	77
11	COc1ccc(CCN2C(=O)C(C)SC2c2cccnc2)cc1 (configuration not stated)	-5	108	94	94
12	CC(C)(CSc1ncccn1)NS(=O)(=O)c1ccccc1	-13	102	116	98
13	Cc1cc(C)cc(NC(=O)[C@H]2O[C@@H]3OC(C)(C)O[C@@H]3[C@H]3OC(C)(C)O[C@H]32)c1	-9	103	105	87
14	CCOc1ccc(OCC)c(S(=O)(=O)n2cccn2)c1	-5	99	116	93
15	O=C(c1ccc(Cl)cc1Cl)N1CCSCC1	-8	103	118	92
16	COc1ccc(-c2nc(CN3CCC(C(=O)NC4CCN(Cc5ccccc5)CC4)CC3)c(C)o2)cc1OC	5	101	92	98
17	N=C(N)c1ccccc1	-22	102	nt	nt
18	CC1=C(C(=O)OC2CCCC2)C(c2cccc(Cl)c2)CC(=O)N1 (configuration not stated)	nt	100	101	84
19	Nc1ccccc1C1C=NNC1=O (configuration not stated)	-48	213	87	67
20	CCOC(=O)c1c(CSCCN(CC)CC)oc2ccc(OC)cc12	-38	102	89	67
21	O=C(Cc1cccc2ccccc12)Nc1ccc(N2CCOCC2)c(Cl)c1	nt	102	107	95
22	O=C1OCCC1Sc1nc(C2CCCCC2)n(-c2ccccc2)n1 (configuration not stated)	-19	nt	96	90
23	Brc1ccc(C(NCc2ccc3c(c2)OCO3)c2nnc(-c3ccccc3)o2)cc1 (configuration not stated)	-1	100	nt	nt
24	Cc1nn(-c2ccccc2)c(N2CCC(C(=O)NCCC3=CCCCC3)CC2)c1-n1c(C)ccc1C	-19	107	nt	nt
25	CCOc1cccc(N2C(=O)CC(N3CCN(c4ccc(OC)cc4)CC3)C2=O)c1 (configuration not stated)	-9	99	nt	nt
26	COc1ccc(Cl)cc1NC(=O)Cn1c(=O)n(Cc2cccs2)c(=O)c2cccnc21	-13	101	105	77
27	CCOC(=O)c1sc(NC(=O)C2c3ccccc3Oc3ccccc32)c(C(=O)OCC)c1C	18	110	103	104
28	c1ccc(-c2nnc3sc(-c4cccnc4)nn23)nc1	-3	102	nt	nt
29	COc1cccc(C(=O)C(C#N)=C(SC)SC)c1	-7	99	119	86
30	O=C(/C=C/c1cc(Br)ccc1F)OCC(=O)N1CCOCC1	-39	nt	105	95
31	COc1cc(C(=O)OC(C)CN2C(C)CCCC2C)cc(OC)c1OC (configuration not stated)	-15	102	90	74
32	CCN(CC)c1ccc(C2C(C#N)=C(N)N(c3cccc(C)c3)C3=C2C(=O)CCC3)cc1 (configuration not stated)	6	110	80	77
33	CN(CC(=O)N(C1CCCCC1)C1CCS(=O)(=O)C1)Cc1nc2ccccc2c(=O)[nH]1 (configuration not stated)	-12	nt	82	94
34	COc1ccc(-c2cc(C(F)(F)F)n3nc(C(=O)Nc4sc5c(c4C(=O)OC(C)C)CCC(C)C5)cc3n2)cc1 (configuration not stated)	-58	105	106	83
35	Cc1ccc(NC(=O)CN(C)C(=O)COc2cccc3cccnc23)cc1	10	nt	71	0
36	COc1cccc(C2CC(C(F)(F)F)n3ncc(C(=O)N4CCCCC4)c3N2)c1 (configuration not stated)	-34	100	89	80
37	Cc1ccc(C)n1CCN1CCN(S(=O)(=O)c2ccccc2)CC1	16	nt	124	104
38	Clc1ncc(CN2CCN(c3ccccc3)CC2)s1	-3	105	nt	nt
39	COc1ccc2c(c1)N(C)/C(=C1/SC(=Nc3ccc(C)cc3)N(C)C1=O)S2	17	100	95	106
40	O=C1NC2C3CC4CC(C3)CC2(C4)O1 (configuration not stated)	5	108	107	101
41	Cc1oc2ncn(CC(C)C)c(=O)c2c1C(=O)NCC1CCN(Cc2ccc(F)cc2)CC1	-35	99	97	86
42	Cc1ccc(C(=O)C#Cc2ccccc2)cc1	-11	110	90	34
43	CC[n+]1ccsc1N	-18	nt	96	94
44	O=C(Cc1ccccc1)N1CCSC1=S	1	110	107	74
45	CCNc1nc(-c2ccccc2)cs1	-4&-51	99&104	78	92
46	Cc1ccccc1Cn1c2ccccc2c2cnn(CC(=O)NCc3cccc(Cl)c3)c(=O)c21	-15	104	106	87
47	CCOc1ccc(/C=C\C(C)=N\O)cc1	-59	104	115	113
48	COc1ccccc1N1CCN(S(=O)(=O)c2ccc(F)c(C(=O)Nc3ccc(C)c(F)c3)c2)CC1	nt	100	112	84
49	CC(C)Nc1nc(NC(C)C)nc(Nn2cnnc2)n1	0	nt	118	91
50	CC(C)Nc1c(-c2ccccc2)oc2ccc(C(=O)O)cc2c1=O	-19	106	52	70

# Further compounds.
nr	Compound	HCMV NEC inh	GIV-Gai inh	Sa growth 42C	Sa growth 42C second temp
51	CCOc1ccc(CC(=O)Nc2c(C(=O)c3ccc(F)cc3)oc3ccc(Cl)cc23)cc1OCC	-24	106	97	87
52	Cc1cc(C)nc(SCc2n[nH]c(=S)o2)n1	-12	97	85	76
53	CC1=C(C(=O)OC(C)C(C)(C)C)C(c2cccc(Br)c2)NC(=O)N1 (configuration not stated)	nt	124	94	84
54	CCOC(=O)Cn1c(=O)n(CC2CCCO2)c2nc(-c3c(F)cccc3Cl)nc(C(N)=O)c21 (configuration not stated)	nt	102	98	88
55	CCCn1nc(SCC(=O)OCC)n2c(=O)c3c(nc12)-c1ccccc1CC3(C)C	-8	111	nt	nt
56	COC(=O)C1=CN(C2CC2)C=C(C(=O)OC)C1c1ccc(O)cc1	-42	102	100	95
57	N#CC(C#N)=C1CCCCCN1	-24	110	103	35
58	N#Cc1ccc(-c2cccs2)nc1SCc1ccc(Cl)cc1Cl	-18	104	106	89
59	NC(N)=NS(=O)(=O)c1ccc(N=Cc2ccccc2O)cc1	8	nt	65	54
60	Cc1ccc(NC(=O)Cn2ccsc2=N)c(Br)c1	-12	nt	91	79
61	Cc1nc(Nc2nc3ccccc3o2)nc(-c2ccc(Cl)cc2)c1C#N	-13	102	101	95
62	CNC(=O)CSc1cn(CC(=O)N2CCCCCC2)c2ccccc12	nt	106	84	79
63	CSc1nnc(-c2ccc(NC(=S)N3CCCCC3)cc2)o1	-16	102	nt	nt
64	O=C(Nc1ccc2nc3n(c(=O)c2c1)CCCC3)c1cccc(F)c1	-1	113	108	83
65	O=C(NC1=NCCCCC1)c1ccccc1	-20	nt	125	88
66	O=C(CCCC1NCC2CC1CN(Cc1ccccc1)C2)NC1CCCC1 (configuration not stated)	-17	101	nt	nt
67	O=C(COC(=O)C1CC(=O)N(Cc2ccco2)C1)c1ccc(OC(=O)c2ccco2)cc1 (configuration not stated)	2	103	99	81
68	COC(=O)c1sccc1NC(=O)CC(=O)C(F)(F)F	-32	100	40	18
69	CCOC(=O)n1nc(Cc2ccncc2)c2ccccc2c1=O	-2	96	100	84
70	Cc1ccc(-c2nc(NC(=O)CSc3ccc4ccccc4n3)ns2)cc1	-31	99	88	97
71	Cc1ccnc(NS(=O)(=O)c2ccc(NC(=O)c3sc4ccccc4c3Cl)cc2)n1	-19	95	nt	nt
72	O=C(O)CCc1nc2ccccc2c(=O)[nH]1	-13	nt	105	87
73	Cc1cccc(OCc2nnc(SCC(=O)c3ccc4c(c3)NC(=O)CO4)o2)c1	-25	nt	77	90
74	Cc1ccc2c(n1)CC(C)(C)C/C2=N/O	-15	106	90	98
75	COC(=O)c1cc(NC2(c3ccccc3)C(=O)c3ccccc3C2=O)cc(C(=O)OC)c1	nt	104	128	93
76	COc1cccc(NC(=O)N2CCN(S(=O)(=O)c3cc4c(cc3Cl)NC(=O)C(C)O4)CC2)c1 (configuration not stated)	-9	104	nt	nt
77	COc1ccc(C2C(C(=O)OCCOc3ccccc3)=C(C)NC3=C2C(=O)CCC3)c(OC)c1OC (configuration not stated)	-9	106	nt	nt
78	CCOc1cccc(C(=O)N2CCC(c3nc4ccccc4s3)CC2)c1	-14	98	102	85
79	CC1=NN(c2ccc(Cl)c(C(=O)O)c2)C(=O)/C1=C\c1cnn(-c2ccc(C)c(C)c2)c1	-10	107	nt	nt
80	CC(C)Nc1cc(-c2ccccc2)nc2nncn12	nt	100	103	76
81	CCOC(=O)c1s/c(=N/N=C(C)C)n(C)c1C	-25	106	97	84
82	N#Cc1ncc(C(F)(F)F)cc1S(=O)(=O)c1ccc(Cl)cc1	-4	106	nt	nt
83	COc1ccc(NC(=O)CSc2oc(-c3ccco3)nc2S(=O)(=O)c2ccc(C)cc2)c(OC)c1	-23	100	94	87
84	CCOC(=O)c1ccc(NC2=CC(c3ccc(Br)cc3)N(c3ccc(C(=O)OCC)cc3)C2=O)cc1 (configuration not stated)	7	111	91	106
85	COc1ccccc1Nc1nc2nonc2nc1Nc1ccc(Cl)cc1	-37	104	nt	nt
86	COc1ccc(CNC(=O)Cn2c(=O)cc(C)c3c(C)nn(-c4cccc(Cl)c4C)c32)cc1	nt	97	88	88
87	O=C(NCCN1CCOCC1)c1ccc(-c2ccccc2)cc1	-1	nt	93	111
88	CCS(=O)(=O)c1ccc(O)c(-n2c(=S)[nH]c3ccccc3c2=O)c1	-8	nt	85	87
89	CC(C)/C=C1\CCCCC1O (configuration not stated)	-15	nt	89	96
90	C=CCN(CC=C)C(=O)c1csc(Nc2ccc(C)cc2)n1	-16	nt	113	57

# Sorted by the number under Sa growth 42C (high to low): some entries from above
entry | SMILES | GIV-Gai inh | Sa growth 42C | Sa growth 42C second temp
81 | CCOC(=O)c1s/c(=N/N=C(C)C)n(C)c1C | 106 | 97 | 84
84 | CCOC(=O)c1ccc(NC2=CC(c3ccc(Br)cc3)N(c3ccc(C(=O)OCC)cc3)C2=O)cc1 (configuration not stated) | 111 | 91 | 106
89 | CC(C)/C=C1\CCCCC1O (configuration not stated) | nt | 89 | 96

# One compound at a time (already shown). Values in the order: HCMV NEC inh, GIV-Gai inh, Sa growth 42C, Sa growth 42C second temp
# `CCOC(=O)c1ccc(NC2=CC(c3ccc(Br)cc3)N(c3ccc(C(=O)OCC)cc3)C2=O)cc1` (configuration not stated) as listed: 7, 111, 91, 106
# `COc1ccc(Cl)cc1NC1=NC2CS(=O)(=O)CC2S1` (configuration not stated) as listed: nt, 113, 76, 87
# `Cc1ccc(-c2nc(NC(=O)CSc3ccc4ccccc4n3)ns2)cc1` as listed: -31, 99, 88, 97
# `CC1=C(C(=O)OC2CCCC2)C(c2cccc(Cl)c2)CC(=O)N1` (configuration not stated) as listed: nt, 100, 101, 84
# `CCOC(=O)c1s/c(=N/N=C(C)C)n(C)c1C` as listed: -25, 106, 97, 84

# Following part.
nr	Compound	HCMV NEC inh	GIV-Gai inh	Sa growth 42C	Sa growth 42C second temp
91	CNC(=O)/C(=C\C=C\c1ccccc1)NC(=O)c1ccccc1	-73	nt	108	85
92	Cc1nn(-c2ccccc2)cc1/C=C1/CN(C)C/C(=C/c2cn(-c3ccccc3)nc2C)C1=O	-6	nt	96	89
93	CC(C)n1c2ccccc2c2nnc(SCc3ccc4nonc4c3)nc21	-5	104	115	82
94	c1ccc(Nc2ncn[nH]2)cc1	-5	103	nt	nt
95	Cc1csc(N2N=C(c3ccc(F)cc3)CC2c2ccccc2F)n1 (configuration not stated)	-37	99	nt	nt
96	O=C(CC1CCCC1)OCc1cccs1	18	nt	73	98
97	O=C(CCC1CCCC1)OCc1nnc(-c2ccccc2Br)o1	-22	nt	82	88
98	O=C(Cc1csc2ccccc12)N1CCN(C(=O)Nc2ccc(Br)cc2)CC1	8	104	nt	nt
99	CN(C)C1CCCCC1NS(=O)(=O)c1ccccc1 (configuration not stated)	nt	101	88	87
100	COC(=O)c1ccccc1S1=NS(=O)(=O)c2ccccc21 (configuration not stated)	-12	97	105	74
101	COC(=O)C(C)Sc1ccc2nnc(-c3cccnc3)n2n1 (configuration not stated)	0	103	85	98
102	O=C(OCC(=O)N1CCCC1=O)c1ccc2ccccc2n1	-88	nt	94	92
103	CC(C)(C)C(=O)Nc1c(Br)c(C2CC2)nn1-c1ccccc1	-35	111	88	87
104	CN1CCN(CCCNC(=O)CSc2c3c(nc4ccc(Cl)cc24)CCCC3)CC1	-3	97	113	89
105	COc1ccc(-c2nc3ccccc3o2)cc1NC(=O)CSc1ccc(Cl)cc1	-24	108	103	88
106	CCOc1ccc(-c2csc(NC(=O)CC)n2)cc1	-10	nt	109	86
107	CC1C/C=C/C=C/C=C/C=C/C(O[C@@H]2O[C@H](C)[C@@H](O)[C@H](N)[C@@H]2O)CC2OC(O)(CC(O)CC3OC3/C=C/C(=O)O1)CC(O)C2C(=O)O (some centres not stated)	-1	nt	100	102
